# Assay outcomes deposited in PubChem by National Center for Advancing Translational Sciences (NCATS).
# TRPML1 ag: activates the human TRPML1 channel; AID 624414; hit rate 0.12% among 410,000; activation, % (concentration not given with the values); TRPML1-expressing cells, Ca2+ dye fluorescence, FDSS; host cell line not named in the record; reference of the full effect not given here; Q9GZU1; in the data active = activation above about 50%; inconclusive = about 30% to 50%; inactive = below about 30%; further: 0% is about no effect; the text of the record puts the active cut at 80%
# Target sequence (Q9GZU1 whole entry, looked up): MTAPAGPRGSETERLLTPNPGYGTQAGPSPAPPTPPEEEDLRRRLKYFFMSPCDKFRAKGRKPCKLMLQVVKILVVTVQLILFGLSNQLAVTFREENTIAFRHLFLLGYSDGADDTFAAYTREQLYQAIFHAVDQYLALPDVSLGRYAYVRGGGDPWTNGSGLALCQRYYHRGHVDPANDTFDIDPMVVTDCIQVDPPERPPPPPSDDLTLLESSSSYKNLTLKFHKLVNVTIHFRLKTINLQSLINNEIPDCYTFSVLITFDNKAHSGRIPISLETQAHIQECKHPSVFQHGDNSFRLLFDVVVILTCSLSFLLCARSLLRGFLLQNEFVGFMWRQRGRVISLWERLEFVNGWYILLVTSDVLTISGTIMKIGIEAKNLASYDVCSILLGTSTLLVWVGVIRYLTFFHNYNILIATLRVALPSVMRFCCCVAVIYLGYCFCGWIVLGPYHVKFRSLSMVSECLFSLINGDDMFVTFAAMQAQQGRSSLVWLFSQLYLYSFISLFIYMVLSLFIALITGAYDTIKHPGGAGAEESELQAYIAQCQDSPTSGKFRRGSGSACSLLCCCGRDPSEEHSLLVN
#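 Calcium fluorescence on an FDSS kinetic reader gave the read-out. Tet-induced TRPML1-DL cells were plated overnight, dye-loaded (Ca8 with quencher, 45-90 min, room temperature, dark), then read 110 s after compound addition, and again 110 s after 4uM final 54-4 (EC80).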
# D2 agonist: activates the human D2 dopamine receptor; activation, % (no concentration beside the values); DiscoveRx PathHunter D2 beta-arrestin, luminescence, 90 min; 100% = 57 uM dopamine signal; hit rate 0.084% among 360,000; AID 624465; in the data active = activation above about 40%; inconclusive = about 15% to 40%; inactive = below about 15%; further: compound concentration not given in the record; the text of the record calls up to 30% inactive
# Target sequence (P14416 whole entry, looked up): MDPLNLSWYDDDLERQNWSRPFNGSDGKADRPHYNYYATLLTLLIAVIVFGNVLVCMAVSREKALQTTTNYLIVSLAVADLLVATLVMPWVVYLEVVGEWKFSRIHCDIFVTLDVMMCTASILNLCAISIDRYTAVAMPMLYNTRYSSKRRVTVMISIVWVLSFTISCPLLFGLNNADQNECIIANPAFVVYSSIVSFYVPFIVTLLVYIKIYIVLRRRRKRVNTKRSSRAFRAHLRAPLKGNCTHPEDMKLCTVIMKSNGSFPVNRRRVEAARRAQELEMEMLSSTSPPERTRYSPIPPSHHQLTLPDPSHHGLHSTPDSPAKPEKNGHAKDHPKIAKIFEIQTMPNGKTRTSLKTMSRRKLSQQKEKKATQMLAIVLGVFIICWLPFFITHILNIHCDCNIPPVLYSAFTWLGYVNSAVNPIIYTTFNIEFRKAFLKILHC
#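 Agonist mode: compounds alone added to overnight-plated D2 PathHunter cells for 90 min at 37 C, with 57 uM final dopamine (EC100) defining full response. Beta-arrestin recruitment detected by chemiluminescent reagent, read after 1 h at ambient temperature.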
# D2 potentiator: human D2 receptor positive allosteric modulation; P14416; DiscoveRx D2 beta-arrestin cells, luminescence, 90 min; 100% = 57 uM dopamine signal; hit rate 0.23% among 360,000; potentiation, % (test concentration not listed); AID 624464; active = potentiation of 50% or more; inconclusive = 30% to 50%; inactive = 30% or less;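 further: compound concentration not given in the record; tested on top of an EC20 dose of dopamine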
#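 PathHunter D2 cells, attached overnight at 37 deg C, received compound in DMSO plus dopamine at EC20 (50 nM final) for 90 min at 37 deg C. Beta-arrestin recruitment was read as luminescence after 1 h with detection reagent at ambient temperature.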
# PINK1 modulator: changes PINK1 expression | PINK1 immunofluorescence, high-content cytometry, 24 h | Potency, µM (top dose mostly 76.6 µM), inactives show top-dose activation (PINK1 increase), actives largely listed as activators | hit rate 0.2% among 410,000 | AID 624263; active = well fitted activation curve with a large enough effect; inconclusive = small, poorly fitted or top-dose-only effect; inactive = flat fitted curve, though single readings scatter; cell line not stated here;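 further: potency means the concentration at half of the fitted maximal effect; % of control where 0% means no effect; nearly all actives have a fitted effect of over 65% in size; a mitochondrial uncoupler was the plate control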
#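 Decision-based qHTS: stable cells, 24 h exposure to five compound concentrations, CCCP as control. Fixed cells stained for PINK1 plus nuclear, mitochondrial and cell markers, cytometer read.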
# Six1-Eya2 inh: Six1/Eya2 interaction inhibition. Q15475+O00167. AlphaScreen GST-Six1/His-Eya2 binding, biochemical; hits give low values; control for the full effect not named in the record. activity change, % (no concentration beside the values). hit rate 0.56% among 360,000. AID 651725; in the data active = activity change below about -65%; inconclusive = about -30% to -65%; inactive = above about -30%; further: on the % scale 0 is the no-effect control and ±100 the full control effect; compound concentration not given in the record
#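 Compounds are tested against tagged Six1 and Eya2 proteins bridged by glutathione donor and nickel acceptor beads; after a one-hour incubation at 37 °C without light, AlphaScreen emission is recorded.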
# TRPML1 inh: inhibitors of human TRPML1 channel; TRPML1-inducible cells, Ca2+ dye fluorescence, FDSS; hits give low values; inhibition of EC80 agonist-evoked calcium signal; activity change, negative = inhibition, % (no concentration beside the values); hit rate 0.02% among 390,000; AID 624415; in the data active means activity change below about -50%; inconclusive means about -30% to -50%; inactive means above about -30%;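 further: stimulus is agonist 54-4 at its EC80 concentration; on the % scale 0 is the no-effect control and ±100 the full control effect; compound concentration not given in the record; the text of the record puts the active cut at -80%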
#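 Tet-induced TRPML1-DL cells loaded with Ca8 no-wash calcium dye were read kinetically on FDSS. Compound addition was followed by EC80 agonist 54-4 (4 uM final); inhibition was read over 110 s.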
# Active calls of the source: *; u = inconclusive; x = no result given; [ ] = remark or other dose. Hits appear at their usual frequency (roughly 1% active in at least one column).
cpd	canonical_smiles	TRPML1 inh	D2 agonist	Six1-Eya2 inh	PINK1 modulator	D2 potentiator	TRPML1 ag
1	CCOc1ccc(CCNC(=O)c2ccc3c(=O)[nH]c4c(C(=O)NC(C)C)sc(=S)n4c3c2)cc1	-1	-1.4	-9	-0.9%	-4	3.5
2	COc1ccc(C(C(=O)NC2CCCC2)N(C(=O)c2ccco2)c2cccc(C(C)=O)c2)cc1OC (stereo unspecified)	-3	0.5	9	1.7%	-10	-0.2
3	Cc1ccnc(NS(=O)(=O)c2cccc([N+](=O)[O-])c2)c1	0	-3.4	6	0.6%	-11	0.1
4	CCOC(=O)c1c(C)c(C(=O)Nc2cc(F)ccc2F)c(C)n1C	7	-0.1	6	8.1%	-16	2.8
5	CN(CCO)c1ccc([N+](=O)[O-])cc1C(=O)O	25	-1.6	4	-2.0%	-11	2.5
6	O=C(O)CCC(=O)N1CCc2cc(S(=O)(=O)Nc3ccc4c(c3)OCCO4)ccc21	3	-2.7	-2	2.6%	0	-0.1
7	CCN(CC)C(=O)c1cccc2nc3ccccc3nc12	-7	1.8	-8	0.7%	-19	0.2
8	COc1ccc(-c2nnc(SCC(=O)/C(C#N)=C(\C)N)o2)cc1	23	-1.5	0	0.8%[38.3 µM]	3	2.9
9	COc1ccc(NC(=O)NNS(=O)(=O)c2ccc(Br)cc2)cc1	0	-5.1	16	8.2%	-17	0.4
10	Cc1cccc(NC(=O)CN2CCc3cc4c(cc3C2C)OCCCO4)c1 (stereo unspecified)	27	-0.4	-6	0.2%	-18	0.3
11	CC(C)(C)OC(=O)CNC(=O)c1[nH]cnc1C(=O)Nc1ccc(Cl)cc1	-16	1.7	-18	3.9%	-4	1.5
12	Clc1ccc2nc(-c3cccc(Br)c3)c(Cc3ccccc3)n2c1	14	-4.0	6	2.6%	-10	0.3
13	O=c1ccn([C@@H]2O[C@H](CNCc3cccn3-c3nccs3)[C@@H](O)[C@H]2O)c(=O)[nH]1	1	-2.0	2	3.7%	-1	-0.3
14	COc1ccc(-c2nc3sc(CCNC(=O)C(=O)Nc4cc(C)cc(C)c4)c(C)n3n2)cc1	8	x	x	0.1%	x	1.2
15	C/C(=N\NC(=O)c1cc(-c2cccnc2)nc2ccccc12)c1ccc(O)cc1O	-10	-4.9	-74*	-0.2%	-38	-0.7
16	C[C@@H]1CN([C@@H](C)CO)C(=O)c2cccc(NC(=O)c3ccncc3)c2O[C@@H]1CN(C)Cc1ccc(-c2ccccc2)cc1	-12	1.1	12	1.0%	3	1.7
17	CCC(C)(C)n1nnnc1C(c1cc2ccc(C)cc2[nH]c1=O)N(Cc1cccnc1)Cc1ccco1 (stereo unspecified)	2	2.3	-10	x	-5	0.4
18	COCCN1C(=O)Cc2c1nc(N)c1c(N)nc(N3CCN(c4ccc(F)cc4)CC3)c(C#N)c21	43	1.7	u	0.6%	-3	0.5
19	C/C(=N/Nc1ccccc1C(=O)O)c1cccs1	-12	0.8	-14	0.0%	-1	-0.7
20	COc1ccc(NC(=O)[C@@H]2CCCN2C(=O)[C@@H]2Cc3ccccc3CN2C(=O)OC(C)(C)C)cc1	-2	-2.0	-6	2.7%	-14	0.3
21	CCCCCNC(=O)c1ccc(NS(=O)(=O)c2ccc3[nH]c(=O)[nH]c3c2)cc1	10	0.8	2	1.6%	-11	0.4
22	OC(c1ccccc1)(c1nc(-c2csc3ccccc23)cs1)C(F)(F)F (stereo unspecified)	x	4.4	1	-0.1%	-10	-0.1
23	O=C(CNC(=O)c1ccc(Br)o1)NCc1ccc(Cl)cc1	0	-0.3	-4	0.6%	-14	0.3
24	O=C(C[n+]1ccccc1)Nc1ccccc1C(=O)O	20	-6.0	-7	-0.9%	-3	1.3
25	CCn1cc(C(=O)N[C@@H](CCSC)C(=O)NCCCOC)c(=O)c2cc3c(cc21)OCO3	23	5.0	3	1.3%	-1	-0.4

# Continuation.
cpd	canonical_smiles	TRPML1 inh	D2 agonist	Six1-Eya2 inh	PINK1 modulator	D2 potentiator	TRPML1 ag
26	COc1ccccc1N1CCN(C(=O)c2cc(C)oc2C)CC1	36	1.4	-15	3.9%	1	-0.5
27	Cc1c(NC(=O)C23CC4CC(CC(Br)(C4)C2)C3)c(=O)n(-c2ccccc2)n1C	21	1.7	0	-0.1%	0	-0.5
28	CCOC(=O)CCCn1c(C)nc(=O)c(-c2ccccc2)c1C	10	-0.3	12	-1.4%	-8	1.1
29	O=C1Nc2cc(C(F)(F)F)ccc2N2CCCCC12 (stereo unspecified)	-4	-3.1	0	1.8%	-9	-1.7
30	CCOC(=O)c1ccc(NC(=S)N2CCCC2)cc1	6	-2.1	1	-0.1%	-12	1.3
31	CCCc1ccc2oc(C(=O)N3CCC(C(N)=O)(N4CCCCC4)CC3)c(C)c2c1	-20	0.3	0	0.8%	-2	-1.0
32	CCOc1ccccc1NC(=O)Cn1ccn(Cc2ccc(C)cc2)c(=O)c1=O	7	x	x	-0.1%	x	-0.5
33	CN1CCCc2cc(C=O)ccc21	-2	5.7	2	0.8%	-6	1.4
34	CCOc1cccc(-c2nnc3sc(-c4cccs4)nn23)c1	-2	0.9	-1	7.4%	0	-1.5
35	CN(CC(=O)Nc1ccccc1Br)C(=O)CCCSc1nc2ccccc2[nH]1	1	-6.5	-3	1.5%	-13	-1.0
36	Cc1ccc(NC(=O)COC(=O)Cc2c[nH]c3ccccc23)cc1F	27	-5.9	-11	0.8%	-18	1.9
37	CCOC(=O)c1ccc(-c2nnc(-c3ccc(Cl)cc3Cl)o2)cc1	-2	-2.7	3	3.5%	-3	0.1
38	COc1cc2c(cc1OC)CN(C(=O)c1nn(Cc3ccccc3)c(=O)c3ccccc13)CC2	29	2.4	-20	-0.3%	13	4.8
39	COc1ccc(-c2nc3c(C(=O)NCCN(C)C)cccc3c3ccccc23)cc1	0	-3.7	-7	-7.2%	-24	-0.1
40	Cc1ccc(S(C)(=O)=NC(=O)NC(=O)c2c(Cl)cccc2Cl)cc1 (stereo unspecified)	5	-3.2	-5	-1.5%	-8	-0.5
41	COc1ccc(CNC(=O)CNC(C)c2ccc(F)cc2)cc1 (stereo unspecified)	u	-5.9	20	-1.7%	-8	1.1
42	O=C(/C=C/c1ccccc1)NNC(=O)c1cccnc1	-1	0.9	6	x	-13	-0.2
43	CC(=O)Nc1ccc(S(=O)(=O)Nc2nc3ccccc3nc2Nc2ccc(N)cc2)cc1	28	-2.8	1	0.4%	3	9.3
44	CC1CCCCC1NC(=O)CSc1nnc(CNC(=O)c2ccccc2)n1C (stereo unspecified)	-10	-2.5	-2	0.2%	0	0.1
45	Cn1c(=O)cc(SCC(=O)N2CCN(C(=O)c3ccco3)CC2)c2ccccc21	-5	-1.0	-4	-0.3%	-2	2.2
46	CN(C)c1oc(-c2ccc(OCc3ccccc3)cc2)nc1C#N	-5	9.0	-30	2.7%	-15	1.5
47	CC1(C)CC(=O)C(C(c2cccc([N+](=O)[O-])c2)C2C(=O)CC(C)(C)CC2=O)C(=O)C1	29	-1.6	1	-1.0%	-19	-0.5
48	COc1cccc(/C=C/C(=O)N2CCN(c3n[nH]c(=O)[nH]c3=O)CC2)c1OC	-9	-1.9	-13	3.0%	-13	-0.3
49	O=Cc1[nH]c2ccccc2c1N(C(=O)CCl)c1ccccc1	4	-4.2	2	-0.4%	-5	0.5
50	OC(CCN1CCCCC1)c1ccc(-c2ccccc2)cc1 (stereo unspecified)	13	-5.7	-1	-0.8%	-25	1.1

# A draw from above in order of number of heavy atoms, high to low:
cpd	canonical_smiles	TRPML1 inh	D2 agonist	Six1-Eya2 inh	PINK1 modulator	D2 potentiator	TRPML1 ag
43	CC(=O)Nc1ccc(S(=O)(=O)Nc2nc3ccccc3nc2Nc2ccc(N)cc2)cc1	28	-2.8	1	0.4%	3	9.3
31	CCCc1ccc2oc(C(=O)N3CCC(C(N)=O)(N4CCCCC4)CC3)c(C)c2c1	-20	0.3	0	0.8%	-2	-1.0
37	CCOC(=O)c1ccc(-c2nnc(-c3ccc(Cl)cc3Cl)o2)cc1	-2	-2.7	3	3.5%	-3	0.1
49	O=Cc1[nH]c2ccccc2c1N(C(=O)CCl)c1ccccc1	4	-4.2	2	-0.4%	-5	0.5
29	O=C1Nc2cc(C(F)(F)F)ccc2N2CCCCC12 (stereo unspecified)	-4	-3.1	0	1.8%	-9	-1.7

# Continued:
cpd	canonical_smiles	TRPML1 inh	D2 agonist	Six1-Eya2 inh	PINK1 modulator	D2 potentiator	TRPML1 ag
51	CCOc1ccccc1-c1cc(-c2ccccc2)nc2c1c(=O)n(C)c(=O)n2C	-12	0.3	15	2.0%	-17	0.2
52	Cc1cc(C(=O)COC(=O)/C=C/c2ccc(F)cc2)c(C)n1C	13	-1.0	-13	1.1%	-14	2.5
53	O=C(O)CC/C(=C\c1ccccc1[N+](=O)[O-])c1nc2ccccc2s1	4	-2.3	-6	-1.9%	-18	-1.2
54	O/N=C(/Cc1ccccn1)c1ccccc1	7	-5.6	0	-0.4%	-38	-0.9
55	CCOC(=O)C1(Cc2cccc(F)c2)CCN(C(=O)C2CCC2)CC1	11	-16	-11	1.2%	-6	1.4
56	CCCOc1ccc(NCC(=O)Nc2ccc(C)cc2C)cc1	-3	1.4	-8	1.2%	-9	-1.3
57	Cc1cc(-c2[nH]nc3c2C(c2ccsc2)C(C#N)=C(N)O3)c(C)s1 (stereo unspecified)	0	1.5	-15	2.4%	-11	-0.4
58	O=C1N(Cc2ccccc2)c2ccccc2C12OCCO2	-5	-4.7	-5	4.3%	-19	0.9
59	CCOC(=O)C1(C)CCCCCN1C(=O)c1ccc(Cl)nc1 (stereo unspecified)	x	-4.8	0	0.7%	-6	-0.5
60	CC(C)NC(=O)C1CCCN(c2ncnc3onc(-c4ccc(F)cc4)c23)C1 (stereo unspecified)	-10	x	x	1.0%	x	-0.4
61	CCCC[n+]1c(C)sc2cc(OC)ccc21	13	-4.8	1	0.2%	-1	1.3
62	CCOC(=O)c1sc2ccccc2c1S(=O)(=O)N1CCN(c2cccc(C)c2)C(C)C1 (stereo unspecified)	-20	x	x	2.9%	x	0.5
63	CC(C)c1ccccc1NC(=O)CN1C(=O)c2ccccc2C1=O	-7	1.5	6	2.9%	-2	-0.2
64	O=C(Cc1ccc(F)cc1)Nc1nnc(-c2ccc(F)cc2)o1	31	-1.7	u	-0.3%	-17	-0.8
65	Cc1cc(-c2ccc(C(C)C)c(S(=O)(=O)N3CC(=O)Nc4ccccc43)c2)on1	-5	7.6	5	5.5%	-9	1.3
66	CCc1ccc2nc(N(CCN(CC)CC)C(=O)c3cccs3)sc2c1	11	x	x	u	x	0.7
67	COc1ccc(NC(=O)c2nc(C)c(C3(C)CC(c4cccnc4)=NO3)s2)cc1 (stereo unspecified)	-1	-0.3	1	2.6%	-13	-0.3
68	Cc1ccc(C)c(OCC(=O)N(Cc2nnc(-c3ccccc3Cl)o2)C2CC2)c1	10	-1.7	0	2.9%	-2	1.0
69	CCCCC1=CC2=C(c3ccco3)C(=O)C(C)(OC(=O)c3ccc(OC)cc3)C(=O)C2=CN1CCN1CCOCC1 (stereo unspecified)	2	-2.0	-11	2.2%	-23	-0.4
70	O=C(Nc1cccc(C(F)(F)F)c1)c1noc2c1CCc1ccccc1-2	17	x	x	6.0%	x	1.0
